Source: PubChem BioAssay
rRNA inh HTS = reduced GFP signal of wild-type E. coli, primary screen, bacterial rRNA inhibitor project, GFP/RFP fluorescence, OD600, single point. E. coli WT GFP vs humanized-ribosome RFP mutants, 24 h; hits give low values; DMSO median 0, no signal -100. GFP signal change (wild-type ribosome), % (no concentration beside the values). 350,000 tested, 1.6% active. AID 720706, 2013;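 active = significant combined selectivity score with lowered wild-type GFP, culture density cut under 30%, mutant RFP and density less affected; inactive = any of these conditions unmet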; also: one replicate is shown; some compounds called inactive have numbers as strong as hits
FGF22 binding = binders of human FGF22 protein, primary screen, FGF22 synaptogenesis inhibitor project, biophysical, thermal shift, single point; calls only at 9.99 µM; Fibroblast growth factor 22 (Homo sapiens), Q9HCT0; recombinant FGF22 thermal shift, SYPRO orange fluorescence; percent of sucrose octasulfate shift, DMSO zero; 340,000 tested, 1.5% active; AID 651658, 2012;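 active = melting point raised past a set limit in the mean and every replicate; three in four hits are not shown here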
Target sequence (Q9HCT0 whole entry, looked up): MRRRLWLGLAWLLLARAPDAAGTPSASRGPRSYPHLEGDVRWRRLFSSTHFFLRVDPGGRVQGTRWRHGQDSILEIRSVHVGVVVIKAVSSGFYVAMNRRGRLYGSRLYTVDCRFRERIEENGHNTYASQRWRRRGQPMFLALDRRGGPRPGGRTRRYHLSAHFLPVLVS
AF4-AF9 inh = inhibitors of AF4 peptide binding to AF9, primary screen, biochemical, AlphaScreen, biotin-AF4 peptide, FLAG-AF9, single point | AID 651704, 2012 | inhibition, % at 10 µM | 350,000 tested, 0.47% active;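 active = every replicate reaching a set inhibition limit, whatever the replicate mean, cut at about 25% in these data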;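 also: 0% = plate neutral control median and 100% = total signal loss; the record names both 10 and 1 µM as test concentration; the first replicate is given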
Target sequence (P42568 whole entry, looked up): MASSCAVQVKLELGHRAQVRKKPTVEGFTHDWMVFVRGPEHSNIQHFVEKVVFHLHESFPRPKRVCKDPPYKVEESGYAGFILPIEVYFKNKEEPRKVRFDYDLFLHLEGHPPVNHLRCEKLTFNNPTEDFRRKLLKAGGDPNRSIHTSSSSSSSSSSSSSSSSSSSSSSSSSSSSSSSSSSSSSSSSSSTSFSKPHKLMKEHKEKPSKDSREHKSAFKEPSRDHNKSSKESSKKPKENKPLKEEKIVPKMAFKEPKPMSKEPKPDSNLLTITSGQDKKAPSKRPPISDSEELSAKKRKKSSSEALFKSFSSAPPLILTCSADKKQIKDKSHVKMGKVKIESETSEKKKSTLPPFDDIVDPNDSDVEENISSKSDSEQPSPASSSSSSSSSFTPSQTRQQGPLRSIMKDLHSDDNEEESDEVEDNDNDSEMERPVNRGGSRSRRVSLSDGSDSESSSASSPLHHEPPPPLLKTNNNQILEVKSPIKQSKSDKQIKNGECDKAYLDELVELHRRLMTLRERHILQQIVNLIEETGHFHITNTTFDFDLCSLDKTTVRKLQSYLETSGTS
rRNA inh HTS OD600 = further read-out of rRNA inh HTS, marked with its call; OD600 change, %; measured here: OD600 growth;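 optical density of the mix in the first replicate; 0 = DMSO median and -100 = no signal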
rRNA inh HTS RFP = further read-out of rRNA inh HTS, marked with its call; RFP signal change, %; measured here: RFP humanized mutant strains;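 first replicate; 0 = DMSO median and -100 = no signal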
* hit, by the source's call; & = joins results of further samples. A portion of the library; rates above refer to the full screens.

`Cc1ccc(S(=O)(=O)NCC[C@@H]2CC[C@@H](NC(=O)NC(C)C)[C@H](CO)O2)cc1` gave rRNA inh HTS 1, FGF22 binding inactive, AF4-AF9 inh -1.4, rRNA inh HTS OD600 2 and rRNA inh HTS RFP -1.1.
For COCC(=O)N[C@@H]1CC[C@H](CC(=O)NCc2ccccc2OC)O[C@@H]1CO the results were rRNA inh HTS -1, FGF22 binding inactive, AF4-AF9 inh -11, rRNA inh HTS OD600 2 and rRNA inh HTS RFP -1.7.
COc1ccc(CN2CCC[C@]3(N[C@H](c4ccccc4)[C@@H]4C(=O)N(Cc5ccccc5)C(=O)[C@@H]43)C2=O)cc1 was read as rRNA inh HTS -14, FGF22 binding inactive, AF4-AF9 inh 2.3, rRNA inh HTS OD600 -9 and rRNA inh HTS RFP 2.7.
For CC(C)NC(=O)Nc1ccc2c(c1)C(=O)N([C@H](C)CO)C[C@@H](C)[C@H](CN(C)C(=O)Nc1cccc3ccccc13)OCCCC[C@H](C)O2 the results were rRNA inh HTS 2, FGF22 binding inactive, AF4-AF9 inh 1.6, rRNA inh HTS OD600 2 and rRNA inh HTS RFP 1.1.
Screening C[C@@H]1CN([C@H](C)CO)C(=O)Cc2cc(NC(=O)CCCCCC(=O)Nc3ccccc3N)ccc2O[C@H]1CN(C)S(=O)(=O)c1ccc(F)cc1 returned rRNA inh HTS -1, FGF22 binding inactive, AF4-AF9 inh -0.5, rRNA inh HTS OD600 1 and rRNA inh HTS RFP 0.2.
Screening CO[C@@H]1CN(C)C(=O)c2cc(NS(C)(=O)=O)ccc2OC[C@@H](C)N(C(=O)c2ccc3c(c2)OCO3)C[C@H]1C returned rRNA inh HTS 3, FGF22 binding inactive, AF4-AF9 inh 0.1, rRNA inh HTS OD600 5 and rRNA inh HTS RFP 1.0.
Screening CCNC(=O)C[C@H]1CC[C@@H]2[C@@H](COc3ccc(NS(=O)(=O)c4ccccc4C)cc3C(=O)N2C)O1 returned rRNA inh HTS -2, FGF22 binding inactive, AF4-AF9 inh -1.0, rRNA inh HTS OD600 -2 and rRNA inh HTS RFP 1.8.
For C[C@H]1CN([C@@H](C)CO)C(=O)Cc2cc(NC(=O)CCN3CCOCC3)ccc2O[C@@H]1CN(C)Cc1ccc2c(c1)OCO2 the results were rRNA inh HTS 2, FGF22 binding inactive, AF4-AF9 inh 2.0, rRNA inh HTS OD600 4 and rRNA inh HTS RFP 0.6.
Screening COc1ccc(NC(=O)N(C)C[C@@H]2Oc3c(NC(=O)Nc4c(C)noc4C)cccc3C(=O)N([C@@H](C)CO)C[C@H]2C)cc1 returned rRNA inh HTS 3, FGF22 binding inactive, AF4-AF9 inh -2.5, rRNA inh HTS OD600 -2 and rRNA inh HTS RFP -2.0.
C[C@@H]1CCCCO[C@@H](CN(C)Cc2ccccc2)[C@@H](C)CN([C@@H](C)CO)C(=O)c2cc(NC(=O)CCC(F)(F)F)ccc2O1 was read as rRNA inh HTS 0, FGF22 binding inactive, AF4-AF9 inh 1.2, rRNA inh HTS OD600 2 and rRNA inh HTS RFP -2.6.
COCC#Cc1cnc2c(c1)C(=O)N([C@H](C)CO)C[C@H](C)[C@H](CN(C)C(=O)c1cccc(F)c1)O2 was read as rRNA inh HTS 1, FGF22 binding inactive, AF4-AF9 inh -6.8, rRNA inh HTS OD600 4 and rRNA inh HTS RFP -4.1.
`CO[C@@H]1CN(C)C(=O)c2cc(NC(=O)NC(C)C)ccc2OC[C@@H](C)N(Cc2ccccc2)C[C@@H]1C` gave rRNA inh HTS -2, FGF22 binding inactive, AF4-AF9 inh 1.0, rRNA inh HTS OD600 -18 and rRNA inh HTS RFP -1.5.
`Cc1cc(C(=O)Nc2cccc3c2O[C@H](CN(C)C(=O)Nc2cccc4ccccc24)[C@H](C)CN([C@H](C)CO)C3=O)n(C)n1` gave rRNA inh HTS -8, FGF22 binding inactive, AF4-AF9 inh -0.3, rRNA inh HTS OD600 -23 and rRNA inh HTS RFP -2.1.
`Cc1cccc(C)c1Cn1c(C)c(C(=O)NCCC#N)sc1=O` gave rRNA inh HTS 5, FGF22 binding inactive, AF4-AF9 inh -0.9, rRNA inh HTS OD600 14 and rRNA inh HTS RFP 9.5.
`COc1cccc(-c2ccc3n(c2=O)C[C@@H]2[C@@H](CO)[C@H](C(=O)NC4CCCC4)N[C@H]32)c1` gave rRNA inh HTS 1, FGF22 binding inactive, AF4-AF9 inh -0.6, rRNA inh HTS OD600 -3 and rRNA inh HTS RFP -0.1.
For C[C@@H]1CN([C@@H](C)CO)C(=O)CCCn2nncc2CO[C@@H]1CN(C)C(=O)Nc1ccc(-c2cccs2)cc1 the results were rRNA inh HTS 3&-1, FGF22 binding inactive, AF4-AF9 inh -0.5&3.8, rRNA inh HTS OD600 0&-2 and rRNA inh HTS RFP -1.5&1.4.
For Cc1noc(C)c1NC(=O)N[C@H]1CC[C@@H](CC(=O)NCCCN(C)C)O[C@@H]1CO the results were rRNA inh HTS 3, FGF22 binding inactive, AF4-AF9 inh 1.6, rRNA inh HTS OD600 8 and rRNA inh HTS RFP 0.5.
`C[C@H](CO)N1C[C@H](C)[C@@H](CN(C)C(=O)C2CC2)Oc2cc(C#CC3CC3)ccc2S1(=O)=O` gave rRNA inh HTS -4, FGF22 binding inactive, AF4-AF9 inh 1.6, rRNA inh HTS OD600 -17 and rRNA inh HTS RFP -3.2.
`CN1C(=O)c2cc(NC(=O)Cc3cccs3)ccc2OC[C@@H]2O[C@@H](CC(=O)NCC3CCCCC3)CC[C@H]21` gave rRNA inh HTS 2, FGF22 binding inactive, AF4-AF9 inh -2.1, rRNA inh HTS OD600 2 and rRNA inh HTS RFP 1.8.
Cc1noc(C)c1S(=O)(=O)NC(=O)C1(C)CCN1C(=O)C1(c2ccc(Cl)cc2)CC1 (centres undefined) was read as rRNA inh HTS -5, FGF22 binding inactive, AF4-AF9 inh -2.1, rRNA inh HTS OD600 -3 and rRNA inh HTS RFP -4.5.
Screening O=C(c1cccc(F)c1)N1CCCCN2[C@H](CO)[C@@H](c3ccc(-c4ccccc4)cc3)[C@@H]2C1 returned rRNA inh HTS -57, FGF22 binding inactive, AF4-AF9 inh -7.9, rRNA inh HTS OD600 -66 and rRNA inh HTS RFP -5.2.
Screening OC[C@H]1[C@@H](c2ccc(-c3ccc(F)cc3)cc2)[C@@H]2CN(Cc3ccncc3)CCCCN12 returned rRNA inh HTS 1, FGF22 binding inactive, AF4-AF9 inh 8.0, rRNA inh HTS OD600 -14 and rRNA inh HTS RFP 5.2.
For CC1(N=Cc2cc(Cl)ccc2O)COP(=O)(Nc2ccccc2)OC1 (centres undefined) the results were rRNA inh HTS 8, FGF22 binding inactive, AF4-AF9 inh 4.6, rRNA inh HTS OD600 7 and rRNA inh HTS RFP -0.9.
Screening COc1ccc(-c2ccc([C@H]3[C@@H](C#N)N(C(=O)NC4CCCC4)[C@@H]3CO)cc2)cc1 returned rRNA inh HTS -4, FGF22 binding inactive, AF4-AF9 inh -19, rRNA inh HTS OD600 -6 and rRNA inh HTS RFP 11.
For CO[C@@H]1CN(C)C(=O)c2ccc(NC(=O)c3cc(C)on3)cc2OC[C@H](C)N(CC2CC2)C[C@H]1C the results were rRNA inh HTS -1, FGF22 binding inactive, AF4-AF9 inh 2.6, rRNA inh HTS OD600 -1 and rRNA inh HTS RFP -3.1.
CCC(=O)N(C)C[C@H]1Oc2cc(-c3ccccc3F)ccc2S(=O)(=O)N([C@@H](C)CO)C[C@H]1C was read as rRNA inh HTS -3, FGF22 binding inactive, AF4-AF9 inh -1.1, rRNA inh HTS OD600 7 and rRNA inh HTS RFP 0.7.
For CCc1ccc2c(c1)NC(=O)C2(C)Cc1ccc(OC(F)(F)F)cc1 (centres undefined) the results were rRNA inh HTS 1, FGF22 binding inactive, AF4-AF9 inh 1.4, rRNA inh HTS OD600 -7 and rRNA inh HTS RFP 4.6.
`COc1cc(/C=C/C(=O)OCC(=O)N2CCc3ccccc32)cc(OC)c1OC` gave rRNA inh HTS -8, FGF22 binding inactive, AF4-AF9 inh 1.5, rRNA inh HTS OD600 -3 and rRNA inh HTS RFP 3.7.
Screening Cc1cc(C(=O)N2CCCC(C)(C(=O)NS(=O)(=O)C3CC3)C2)nn1C(C)(C)C (centres undefined) returned rRNA inh HTS 3, FGF22 binding inactive, AF4-AF9 inh -0.7, rRNA inh HTS OD600 6 and rRNA inh HTS RFP 3.7.
`Cc1noc(C)c1NC(=O)Nc1ccc2c(c1)C(=O)N([C@@H](C)CO)C[C@H](C)[C@@H](CN(C)C(=O)Nc1cccc3ccccc13)O2` gave rRNA inh HTS 5, FGF22 binding inactive, AF4-AF9 inh -0.4, rRNA inh HTS OD600 6 and rRNA inh HTS RFP -0.6.
For Cc1ccc(S(=O)(=O)N[C@@H]2C=C[C@H](CC(=O)NCc3ccncn3)O[C@H]2CO)cc1 the results were rRNA inh HTS 3, FGF22 binding inactive, AF4-AF9 inh 0.3, rRNA inh HTS OD600 2 and rRNA inh HTS RFP -0.5.
Screening CCS(=O)(=O)NCC[C@H]1CC[C@@H](NC(=O)Nc2cc(Cl)cc(Cl)c2)[C@@H](CO)O1 returned rRNA inh HTS -4, FGF22 binding inactive, AF4-AF9 inh -1.3, rRNA inh HTS OD600 -12 and rRNA inh HTS RFP 1.0.
`C[C@@H]1CCCCO[C@H](CN(C)S(C)(=O)=O)[C@H](C)CN([C@@H](C)CO)C(=O)c2cc(NS(=O)(=O)c3cn(C)cn3)ccc2O1` gave rRNA inh HTS -1, FGF22 binding inactive, AF4-AF9 inh -0.2, rRNA inh HTS OD600 -2 and rRNA inh HTS RFP -1.7.
Screening C[C@@H]1CCCCO[C@@H](CN(C)S(C)(=O)=O)[C@@H](C)CN([C@@H](C)CO)C(=O)c2cc(NC(=O)C3CCCCC3)ccc2O1 returned rRNA inh HTS 1, FGF22 binding inactive, AF4-AF9 inh -5.3, rRNA inh HTS OD600 3 and rRNA inh HTS RFP -2.2.
Screening O=C(C1CCOCC1)N1C[C@H]2[C@@H](c3ccccc31)[C@H](CO)N2C(=O)Nc1ccccc1F returned rRNA inh HTS 5, FGF22 binding inactive, AF4-AF9 inh -0.3, rRNA inh HTS OD600 6 and rRNA inh HTS RFP 0.5.
`COc1ccc(S(=O)(=O)Nc2ccc3c(c2)C(=O)N([C@H](C)CO)C[C@H](C)[C@@H](CN(C)Cc2ccncc2)OCCCC[C@H](C)O3)cc1` gave rRNA inh HTS -1, FGF22 binding inactive, AF4-AF9 inh -1.4, rRNA inh HTS OD600 -4 and rRNA inh HTS RFP -0.4.
`C[C@H](CO)N1C[C@H](C)[C@H](CN(C)C(=O)C2CCCCC2)Oc2ncc(-c3ccccc3F)cc2C1=O` gave rRNA inh HTS -1, FGF22 binding inactive, AF4-AF9 inh -1.5, rRNA inh HTS OD600 6 and rRNA inh HTS RFP 1.1.

Arranged by molar mass (falling): part of the list above.
`COc1ccc(S(=O)(=O)Nc2ccc3c(c2)C(=O)N([C@H](C)CO)C[C@H](C)[C@@H](CN(C)Cc2ccncc2)OCCCC[C@H](C)O3)cc1` gave rRNA inh HTS -1, FGF22 binding inactive, AF4-AF9 inh -1.4, rRNA inh HTS OD600 -4 and rRNA inh HTS RFP -0.4.
`Cc1noc(C)c1NC(=O)Nc1ccc2c(c1)C(=O)N([C@@H](C)CO)C[C@H](C)[C@@H](CN(C)C(=O)Nc1cccc3ccccc13)O2` gave rRNA inh HTS 5, FGF22 binding inactive, AF4-AF9 inh -0.4, rRNA inh HTS OD600 6 and rRNA inh HTS RFP -0.6.
Screening C[C@@H]1CCCCO[C@@H](CN(C)S(C)(=O)=O)[C@@H](C)CN([C@@H](C)CO)C(=O)c2cc(NC(=O)C3CCCCC3)ccc2O1 returned rRNA inh HTS 1, FGF22 binding inactive, AF4-AF9 inh -5.3, rRNA inh HTS OD600 3 and rRNA inh HTS RFP -2.2.
`C[C@H](CO)N1C[C@H](C)[C@H](CN(C)C(=O)C2CCCCC2)Oc2ncc(-c3ccccc3F)cc2C1=O` gave rRNA inh HTS -1, FGF22 binding inactive, AF4-AF9 inh -1.5, rRNA inh HTS OD600 6 and rRNA inh HTS RFP 1.1.
Screening CCS(=O)(=O)NCC[C@H]1CC[C@@H](NC(=O)Nc2cc(Cl)cc(Cl)c2)[C@@H](CO)O1 returned rRNA inh HTS -4, FGF22 binding inactive, AF4-AF9 inh -1.3, rRNA inh HTS OD600 -12 and rRNA inh HTS RFP 1.0.
Screening O=C(C1CCOCC1)N1C[C@H]2[C@@H](c3ccccc31)[C@H](CO)N2C(=O)Nc1ccccc1F returned rRNA inh HTS 5, FGF22 binding inactive, AF4-AF9 inh -0.3, rRNA inh HTS OD600 6 and rRNA inh HTS RFP 0.5.
`COc1cc(/C=C/C(=O)OCC(=O)N2CCc3ccccc32)cc(OC)c1OC` gave rRNA inh HTS -8, FGF22 binding inactive, AF4-AF9 inh 1.5, rRNA inh HTS OD600 -3 and rRNA inh HTS RFP 3.7.
